Screening results (PubChem)
Mtb betalactam = beta-lactam sensitization of Mtb H37Rv. M. tuberculosis H37Rv growth with meropenem, percent inhibition; hits of this screen are not shown here. AID 434955. hit rate 0.27% among 330,000. inhibition, % at 25 µM;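 active = about 74% or more and at least 40 points above the plate without the antibiotic, then above 30% in a dose series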;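 also: growth measured after seven days incubation then overnight dye step; 0% = bacteria only wells and 100% = bacteria with antibiotic; twin plates without the antibiotic show which effects depend on it; some results filed as inactive read as strong as hits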
RecA splice inh = blocks M. tuberculosis RecA intein splicing; P9WHJ3; cell-free RecA intein splicing, fluorescence; inhibition, %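 (about 9 µM by stock and volumes)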; hit rate 0.75% among 290,000; AID 2221; in the data active = inhibition above about 30%;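 also: 0% = vehicle wells and 100% = reference inhibitor control wells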
Target sequence (P9WHJ3 whole entry, looked up, canonical isoform): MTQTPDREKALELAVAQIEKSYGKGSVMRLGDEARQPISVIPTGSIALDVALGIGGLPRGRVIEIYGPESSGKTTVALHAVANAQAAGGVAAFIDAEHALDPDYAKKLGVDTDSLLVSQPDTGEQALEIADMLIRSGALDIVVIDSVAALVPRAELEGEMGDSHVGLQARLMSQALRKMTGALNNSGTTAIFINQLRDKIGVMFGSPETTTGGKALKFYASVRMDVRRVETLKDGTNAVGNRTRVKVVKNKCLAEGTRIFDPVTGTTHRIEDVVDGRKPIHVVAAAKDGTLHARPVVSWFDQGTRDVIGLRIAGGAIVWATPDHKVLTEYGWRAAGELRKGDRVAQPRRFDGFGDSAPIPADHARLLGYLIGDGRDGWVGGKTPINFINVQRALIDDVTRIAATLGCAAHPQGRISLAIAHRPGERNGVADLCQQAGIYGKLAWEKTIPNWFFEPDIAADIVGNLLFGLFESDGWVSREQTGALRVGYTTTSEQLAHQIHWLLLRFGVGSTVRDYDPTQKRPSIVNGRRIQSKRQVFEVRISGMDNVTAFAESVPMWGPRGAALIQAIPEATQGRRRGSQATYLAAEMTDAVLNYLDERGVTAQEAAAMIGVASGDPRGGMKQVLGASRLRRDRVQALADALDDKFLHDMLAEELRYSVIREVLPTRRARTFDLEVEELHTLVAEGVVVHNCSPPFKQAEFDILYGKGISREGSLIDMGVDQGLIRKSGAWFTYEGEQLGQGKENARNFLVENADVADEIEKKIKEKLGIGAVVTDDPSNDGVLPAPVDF
YopH PTP inh = blocks Yersinia enterocolitica YopH tyrosine phosphatase | hit rate 0.16% among 140,000 | fluorescence Ex485/Em525 | inhibition, %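 (about 10 µM by stock and volumes)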;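 active = inhibition of 50% or more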;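 also: controls were vehicle for no effect and minimum signal wells for full effect; inactives centre near -20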
Mtb growth = M. tuberculosis H37Rv growth inhibitors, H37Rv strain (AID 1626); M. tuberculosis H37Rv growth inhibition; higher % means a stronger effect; one-dose inhibition, % at 10 µM; IC50 in µM for titrated hits; hit rate 0.95% among 220,000;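 active = confirmed in a dose series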;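 also: bacteria incubated seven days before Alamar blue readout; 0% = bacteria only wells and 100% = bacteria with antibiotic wells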
Arbovirus inh = antivirals against arbovirus infection; inhibition, % at 10 µM; hit rate 0.37% among 200,000; arbovirus infection cell-based antiviral screen;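 active = inhibition from about 30%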;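 also: bluetongue infection of BSR cells; cell survival read as ATP light after 72 h; 0% = infected wells without compound and 100% = uninfected wells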
Arbovirus inh repeat = also measured in Arbovirus inh; calls as there; inhibition, %; measured here: 10K subset replicate screen; many hits read low in the repeat;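 first of two repeat runs on a subset; 0% = infected and 100% = uninfected wells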
An asterisk follows results filed as active; nt = not tested or not shown.

SMILES	Mtb betalactam	RecA splice inh	YopH PTP inh	Mtb growth	Arbovirus inh	others
COc1cccc(-n2nnc3c(=O)n(CC(=O)N4CCCCC4)cnc32)c1	-2	-0.1	-55	-7%	10
COc1ccc(N2CC(C(=O)Nc3ccc(N4CCOCC4)cc3)CC2=O)cc1 (stereo not drawn)	1	-0.4	9	-11%	9
CCN(CC)S(=O)(=O)c1ccc(OC)c(NC(=S)Nc2cccc(C)c2C)c1	10	1.1	-14	1%	-1
CCOc1ccccc1NC(=O)CCC(=O)Nc1ccccc1OCC	1	-1.2	7	1%	-2
COC(=O)C1=C(C)n2cnnc2NC1c1ccc(Cl)cc1 (stereo not drawn)	2	-3.0	-13	-6%	7	Arbovirus inh repeat=3
O=C(O)C(NS(=O)(=O)c1ccccc1)C(O)c1ccccc1 (stereo not drawn)	-3	0.8	nt	nt	nt
CNS(=O)(=O)c1cccc(C(=O)NC2CCCc3ccccc32)c1 (stereo not drawn)	-2	1.9	nt	nt	nt
O=CN1CCC(=O)N(Cc2ccccc2)c2ccccc21	-6	-1.4	-32	-3%	12
CC(C)c1ccc(NC(=O)COc2nnc(-c3cccs3)c(-c3cccs3)n2)cc1	-8	18	0	4%	-12
CC(NC(=O)c1ccc(N2CCCC2=O)cc1)c1ccccc1 (stereo not drawn)	-4	0.9	-55	-6%	1
Cc1ccsc1/C=N/NC(=O)C(O)c1ccccc1 (stereo not drawn)	-2	-0.8	nt	nt	nt
CCCNC(=O)N1CCC(c2nc3ccccc3s2)CC1	0	-0.9	nt	nt	nt
Cc1ccc(S(=O)(=O)N(Cc2ccc(C(F)(F)F)cc2)C(=O)N2CCN(C)CC2)cc1	-10	-0.6	nt	nt	nt
CCc1nc2c(C#N)c(-c3ccc(Cl)cc3)ccn2n1	-4	-0.3	-7	2%	-5
Cc1ccc2c(CC(=O)NC3CCS(=O)(=O)C3)coc2c1C (stereo not drawn)	8	0.5	nt	nt	nt
COc1cccc(C(=O)N2CCn3c2nc2ccccc23)c1	-11	0.3	nt	-6%	-3
Cc1nnc(NC(=O)CC(C)c2ccccc2)s1 (stereo not drawn)	3	-2.0	nt	nt	nt
CCCS(=O)(=O)N1CCN(Cc2ccc3c(c2)c2ccccc2n3CC)CC1	4	5.6	-7	14%	-16
C=CCN1c2ccccc2[C@]23C[C@@H](C(=O)OC)N=C2NC(C(=O)OC)=C(C(=O)OC)[C@H]13	4	-1.0	nt	-2%	nt
O=C(NC(=S)Nc1ccc(Cc2ccncc2)cc1)c1ccccc1	-7	3.3	-36	3%	-21
CC(C)OC(=O)c1cc(NC(=S)Nc2ccc([N+](=O)[O-])cc2)cc(C(=O)OC(C)C)c1	95	11	-23	9%	-19
Cc1cccc(N(Cc2cc3ccccc3[nH]c2=O)C(=O)c2cccs2)c1	-4	-0.9	nt	1%	nt
CCCC(C)(C)NC(=O)CCCCC(=O)NC(C)(C)CCC	-10	-2.0	-3	-5%	-3
Cc1ccc(NC(=S)N2CCN(c3ccccc3F)CC2)c(C)c1	1	2.6	nt	nt	nt
CN=C(Nc1ccccc1)SC1CC(=O)N(c2cccc(OC)c2)C1=O (stereo not drawn)	0	4.3	nt	2%	-1
COc1ccc(C(=O)C2CCCN(C(=O)c3cc4nc(C)cc(C)n4n3)C2)cc1F (stereo not drawn)	-6	1.0	nt	-4%	0
CCOC(=O)C1=C(C)NC(C)=C(C(=O)OCC)C1C(=O)OCC(=O)c1ccc2c(c1)OCCO2	1	-0.7	-37	-11%	-6
O=C(NNC(=O)C1CC=CCC1)c1cccc(Br)c1 (stereo not drawn)	-11	0.3	nt	nt	nt
Cn1c(=O)cc(OCC(=O)N2CCN(c3cccc(C(F)(F)F)c3)CC2)c2ccccc21	2	-2.5	1	1%	8
Cn1c(-c2ccc(F)cc2)cnc1NCc1cccc([N+](=O)[O-])c1	8	-1.9	nt	nt	nt
Cc1nn(-c2ccccc2)c(N)c1C1(O)C(=O)N(C)c2ccccc21 (stereo not drawn)	1	-3.7	-31	-6%	-9
C[C@]12CC[C@@H]3c4ccc(O)c(O)c4CC[C@H]3[C@@H]1CC[C@@H]2O	-2	-2.6	nt	2%	8
Cc1csc2nc(CCNS(=O)(=O)c3ccc4c(c3)OCCO4)cn12	2	2.5	-22	4%	13
O=C(NCCn1ccc2ccccc21)c1ccc2c(c1)OCO2	-3	-2.2	-2	8%	-27	Arbovirus inh repeat=-11
COc1ccccc1C(=O)COC(=O)COc1cccc2c1OC(C)(C)C2	-13	-0.7	nt	nt	nt
COc1ccc(C(=O)NCCCCc2ccccc2)cc1	8	1.1	nt	nt	nt
CCOc1ccc(N2CC(C(=O)OCC(=O)NCc3ccccc3)CC2=O)cc1 (stereo not drawn)	5	-3.2	-58	-5%	-1
CCc1ccccc1NC(=O)C1CCCN1S(=O)(=O)c1ccc2c(c1)n(C)c(=O)c(=O)n2C (stereo not drawn)	1	-1.1	nt	nt	nt
Cc1cccc(OCc2n[nH]c(=S)o2)c1C	5	nt	nt	1%	-1
COc1cc(OC)cc(C(=O)OCn2nnc3ccccc3c2=O)c1	21	1.0	-2	19%	8	Arbovirus inh repeat=13
COc1ccc(S(=O)(=O)NCC2CCCN(C(=O)CCC(F)(F)F)C2)cc1 (stereo not drawn)	2	-2.3	nt	nt	nt
CS(=O)(=O)c1ccccc1C(=O)N1CCN(Cc2ccccc2)CC1	-7	0.3	nt	-6%	3
COc1ccc2c(c1)c1ncn(CCCN3CCOCC3)c(=O)c1n2C	nt	3.3	-5	-3%	9
Cc1nc2c(S(=O)(=O)c3ccccc3)cnn2c(C)c1C	-7	-0.5	nt	1%	3
O=c1[nH]c(N/N=C\c2ccc(F)cc2)nc2ccccc12	5	nt	nt	-1%	-10
Cc1ccc2cc(CCNC(=O)c3c(-c4ccccc4Cl)noc3C)c(=O)[nH]c2c1	-7	0.1	-6	-4%	-6
CC(C)(C)c1ccc(C(=O)NCCc2ccccc2)cc1	5	0.2	nt	nt	nt
Cc1nc(NC(=O)c2cccnc2)ccc1Br	-2	0.5	-33	-3%	1
O=C(CCCn1c(SCC(=O)c2ccc(O)c(O)c2)nc2ccccc2c1=O)NCC1CCCO1 (stereo not drawn)	1	-0.4	-52	-3%	-3
CC(=O)Nc1ccc(OS(=O)(=O)c2cc(Cl)ccc2C)cc1	6	-2.6	nt	4%	-9
CCS(=O)(=O)NCCc1cc2c(OC)ccc(OC)c2[nH]c1=O	-5	-2.2	-37	-7%	1
CNC(=O)c1ccccc1S(=O)c1ccccc1COC(C)=O (stereo not drawn)	-7	-7.3	nt	-5%	nt
Cc1ccc(C(=O)CN(C(=O)c2ccc(Cl)cc2)N2C(=O)c3ccccc3C2=O)cc1	0	-1.8	-38	-3%	-6
CC(=O)c1ccc(-n2nncc2C)cc1	-9	-0.8	-36	-4%	7	Arbovirus inh repeat=2
c1ccc(-c2cnc(-c3ccccn3)nn2)cc1	-2	-0.9	nt	-2%	nt
COc1ccc(S(=O)(=O)Nc2ccccc2C)cc1C(=O)N1CCOCC1	-5	-1.8	nt	0%	3
COc1cccc(C(C(=O)NC2CCCC2)N(C(=O)c2ccco2)c2ccc(NC(C)=O)cc2)c1OC (stereo not drawn)	-8	11	nt	nt	nt
O=C(COc1ncnc2ccccc12)Nc1ccccc1[N+](=O)[O-]	-18	3.3	nt	3%	3
CC1CCC2CCCCC2N1C(=O)c1cc([N+](=O)[O-])cc([N+](=O)[O-])c1 (stereo not drawn)	100	-1.7	nt	nt	nt
O=C(CCCN1C(=O)c2ccccc2C1=O)N1CCc2ccccc2C1	5	3.4	-8	-8%	1

Reprinted from the results shown for reference:
SMILES	Mtb betalactam	RecA splice inh	YopH PTP inh	Mtb growth	Arbovirus inh	others
Cc1ccc2cc(CCNC(=O)c3c(-c4ccccc4Cl)noc3C)c(=O)[nH]c2c1	-7	0.1	-6	-4%	-6
CC(C)(C)c1ccc(C(=O)NCCc2ccccc2)cc1	5	0.2	nt	nt	nt
Cc1nc(NC(=O)c2cccnc2)ccc1Br	-2	0.5	-33	-3%	1
O=C(CCCn1c(SCC(=O)c2ccc(O)c(O)c2)nc2ccccc2c1=O)NCC1CCCO1 (stereo not drawn)	1	-0.4	-52	-3%	-3
CC(=O)Nc1ccc(OS(=O)(=O)c2cc(Cl)ccc2C)cc1	6	-2.6	nt	4%	-9
CCS(=O)(=O)NCCc1cc2c(OC)ccc(OC)c2[nH]c1=O	-5	-2.2	-37	-7%	1
CNC(=O)c1ccccc1S(=O)c1ccccc1COC(C)=O (stereo not drawn)	-7	-7.3	nt	-5%	nt
Cc1ccc(C(=O)CN(C(=O)c2ccc(Cl)cc2)N2C(=O)c3ccccc3C2=O)cc1	0	-1.8	-38	-3%	-6
CC(=O)c1ccc(-n2nncc2C)cc1	-9	-0.8	-36	-4%	7	Arbovirus inh repeat=2
c1ccc(-c2cnc(-c3ccccn3)nn2)cc1	-2	-0.9	nt	-2%	nt
COc1ccc(S(=O)(=O)Nc2ccccc2C)cc1C(=O)N1CCOCC1	-5	-1.8	nt	0%	3
COc1cccc(C(C(=O)NC2CCCC2)N(C(=O)c2ccco2)c2ccc(NC(C)=O)cc2)c1OC (stereo not drawn)	-8	11	nt	nt	nt
O=C(COc1ncnc2ccccc12)Nc1ccccc1[N+](=O)[O-]	-18	3.3	nt	3%	3
CC1CCC2CCCCC2N1C(=O)c1cc([N+](=O)[O-])cc([N+](=O)[O-])c1 (stereo not drawn)	100	-1.7	nt	nt	nt
O=C(CCCN1C(=O)c2ccccc2C1=O)N1CCc2ccccc2C1	5	3.4	-8	-8%	1

Carrying on:
SMILES	Mtb betalactam	RecA splice inh	YopH PTP inh	Mtb growth	Arbovirus inh	others
COc1ccc(C2CC(=O)Oc3c(C(CCN4CCN(c5ccccc5)CC4)c4ccc(N(C)C)cc4)c(OC)cc(OC)c32)cc1 (stereo not drawn)	-7	20	nt	1%	nt
CCOc1ccc(OCCOC(=O)CNC(=O)c2ccc(Cl)cc2Cl)cc1	47	5.7	nt	nt	nt
Cc1ccccc1Oc1ncccc1C(=O)/C(C#N)=C/N(C)C	14	1.9	-32	-6%	-3
C/C(=N\NC(=S)NC1CCCCC1)c1c(F)cccc1F	78	8.3	nt	5%	9
CNS(=O)(=O)c1ccc(N=Cc2c(C)[nH]n(-c3ccc(C)cc3C)c2=O)cc1	-2	1.0	nt	1%	1
N#CC1C(C#N)N2CCCN2C1c1ccc(Cl)cc1 (stereo not drawn)	4	-0.6	22	3%	-7
CCCn1c(SCc2cc(=O)oc3ccc4ccccc4c23)n[nH]c1=O	-9	0.4	-42	-5%	4
COc1ccc(-c2cn(CCO)nc2-c2ccc(OC)cc2)cc1	6	2.5	nt	nt	nt
O=C(NC1CCCc2ccccc21)c1cccc(S(=O)(=O)N2CCN(c3ccccc3)CC2)c1 (stereo not drawn)	3	6.3	-23	-8%	-8
COc1ccc(NC(=S)NCc2ccco2)c(OC)c1	-8	-0.1	-4	-1%	-2
O=C(CCc1nc(-c2ccccc2F)no1)NC1CCCCCC1	3	1.4	-61	-2%	0
CCCCN1C(=O)c2ccc(C(=O)Nc3c(N)n(CCCC)c(=O)n(C)c3=O)cc2C1=O	-6	0.4	-9	-11%	6	Arbovirus inh repeat=4
CC(C)Cn1c(SCC(=O)Nc2ncccn2)nc2ccccc21	7	1.4	nt	6%	2
Cc1ccc(/C(O)=C2\C(=O)C(=O)N(CCc3c[nH]c4ccccc34)C2c2cccnc2)cc1 (stereo not drawn)	0	0.1	nt	-13%	12
O=C(Cn1cnc([N+](=O)[O-])n1)NC1CC1	-2	-0.7	nt	-1%	7
Cc1[nH]c2ccc(C(C)C)cc2c1CC(=O)O	4	-5.1	nt	4%	nt
O=C(Nc1nc2ccccc2s1)c1cc2c(s1)-c1ccccc1OC2	7	-15	9	2%	9
COc1ccc(NC(=O)/C(C#N)=C\c2cc(OC)c(OCc3ccc(C(=O)O)cc3)cc2Br)cc1	-4	2.9	nt	-14%	3
CCn1c(SCC(=O)Nc2nc3c(s2)CCCC3)nnc1-c1ccccc1	5	2.9	-48	-4%	24
CCC1Sc2ccc(S(=O)(=O)Nc3ccc(OC)c(OC)c3)cc2NC1=O (stereo not drawn)	4	2.7	nt	nt	nt
CCN(C(=O)COC(=O)CCC(=O)c1cccs1)c1c(N)n(Cc2ccccc2)c(=O)[nH]c1=O	-6	-1.6	nt	nt	nt
CC(=O)Oc1ccc(N(C(C)=O)S(=O)(=O)c2cc([N+](=O)[O-])ccc2C)cc1	0	1.2	-24	2%	3
CCOC(=O)Cc1csc(NC(=S)NC(=O)CC(C)C)n1	-6	0.2	-27	-2%	-3
Cc1ccc2nnc(Cl)n2n1	-6	5.9	-36	nt	-1
Cc1cccc(OCC(=O)N(Cc2cccs2)C2CCS(=O)(=O)C2)c1C (stereo not drawn)	-4	2.1	-25	-14%	4

Some of the compounds tested; the hit share may differ from the screen's.
